HCMV NEC inh – inhibitors of HCMV UL50-UL53 interaction, biochemical, HTRF; HCMV UL50-UL53 nuclear egress complex (human cytomegalovirus); normalized percent inhibition; inhibition, % (no concentration beside the values); hit rate 0.15% among 190,000; AID 1918969, 2023;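 active = both replicates at 50% or more, plus weaker picks with an unusually low signal ratio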;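 also: stock transfer was 100 nL into about 20 µL; 0% = negative control wells and 100% = wells with untagged competitor protein; inactives centre near -12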
GIV Gai3 FP – inhibitors of GIV peptide binding to Galpha-i3, primary screen, biochemical, fluorescence polarization, FITC-GIV GBA peptide, rat Galphai3 | 90 min; active compounds read low; scaled: aluminum fluoride 0%, vehicle 100% | percent of control (FP), % (test concentration not listed) | hit rate 0.42% among 210,000;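 active = replicate mean at 85% of control or lower, very high polarization wells dropped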;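 also: lower values mean more displacement of the GIV peptide from Galpha-i3; wells of about 15 µL received 100 nL stock; the first replicate is given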
Target sequence (P08753 whole entry, looked up): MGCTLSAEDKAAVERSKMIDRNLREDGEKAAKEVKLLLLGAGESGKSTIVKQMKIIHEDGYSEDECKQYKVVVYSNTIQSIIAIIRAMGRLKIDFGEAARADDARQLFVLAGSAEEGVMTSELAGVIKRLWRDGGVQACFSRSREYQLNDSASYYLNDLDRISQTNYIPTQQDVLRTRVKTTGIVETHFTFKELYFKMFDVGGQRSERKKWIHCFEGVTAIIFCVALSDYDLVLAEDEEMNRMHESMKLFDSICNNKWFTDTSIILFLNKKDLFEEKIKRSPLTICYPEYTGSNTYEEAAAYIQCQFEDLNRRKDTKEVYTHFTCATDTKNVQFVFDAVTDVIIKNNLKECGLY
Sa growth inh – S. aureus growth inhibition at 42 and 30 °C, primary screen, LtaS inhibitor project, RN4220, two temperatures; OD600, 20 h, 42 °C; active compounds read low; relative growth, % (concentration not given with the values); hit rate 0.53% among 170,000; AID 720641, 2013;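 active = growth at 42 °C up to 50% and 20 or more points under that at 30 °C, or under 10% at both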;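 also: 300 nL library stock went into each well; scaled to the means of positive and negative controls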
Sa growth inh second temp – second read-out of Sa growth inh, no call of its own (marks repeat the call); relative growth, %; measured here: growth at 30 °C;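 optical density after 20 h as mean of two plates; 100% = untreated growth and lower means inhibition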
* hit, by the source's call; x = not tested or not shown; & = joins results of further samples. This is a random part of the collection; any-hit rate near 0.83%.

1: CCN(CC)c1ccc2ccc(=O)oc2c1
2: CCCCn1c(=O)n(C)c(=O)c2cc3c(nc21)-c1cc(F)ccc1OC3O (stereo not given)
3: Cc1[nH]c2c(C)cccc2c(=O)c1CN1CCOCC1
4: CSc1sc(C#N)c2c1S(=O)(=O)N(C)c1ccccc1-2
5: Cn1c(=O)oc2cc(NC(=O)c3ccccc3)ccc21
Compound,1,2,3,4,5
HCMV NEC inh,-93,-10,-25,-16,-24&4
GIV Gai3 FP,137,x,99,105,107&103
Sa growth inh,105,77,95,91,96
Sa growth inh second temp,75,94,87,91,93

6: CC(C)(CNC(=O)c1ccccc1NS(C)(=O)=O)N1CCCCC1
7: CCCN(CCC)CCCNC(=O)C1CCN(S(=O)(=O)c2cccc3nsnc23)CC1
8: CN(Cc1ccccc1)C(=O)c1ccc(CSc2nc3cccnc3n2Cc2ccccc2)cc1
9: O=C(COc1ccc(-c2nnco2)cc1)N1CCSc2ccccc21
10: N#C/C(=C\N1CCN(Cc2ccccc2)CC1)S(=O)(=O)c1ccc(Cl)cc1
Compound,6,7,8,9,10
HCMV NEC inh,-32,-76,x,-22,-10
GIV Gai3 FP,x,104,109,x,105
Sa growth inh,89,103,119,99,104
Sa growth inh second temp,85,96,97,92,104

11: O=c1cc2nc(-c3ccccc3)nc(SCc3cccc(Br)c3)n2[nH]1
12: COc1ccccc1-c1nnc(SCC(=O)Nc2ccccc2F)o1
13: Nc1nnc2c(Nc3ccccc3)nc3nonc3n12
14: COC(=O)c1cc(NC(=O)C2CC(=O)NC3=C2C(=O)CCC3)cc(C(=O)OC)c1 (stereo not given)
15: O=C(CNCc1ccc2c(c1)OCO2)NCc1ccc2c(c1)OCO2
Compound,11,12,13,14,15
HCMV NEC inh,x,-13,-18,-29,-1
GIV Gai3 FP,97,96,113,102,112
Sa growth inh,94,96,98,97,99
Sa growth inh second temp,78,91,104,89,96

16: COc1cc(C(=O)NCCCc2nc3ccccc3n2CC(C)C)cc(OC)c1OC
17: CN1CCN(CCNC(=O)c2cnn(-c3ccc(Cl)cc3)c2C2CCN(C(=O)OC(C)(C)C)CC2)CC1
18: CN1C(=O)/C(=C/c2ccccc2Cl)Sc2ccc(C(=O)O)cc21
19: CC(C(=O)N1CCc2ccccc21)N(C)CC(=O)Nc1ccccc1Cl (stereo not given)
20: Cc1cc2[nH]c(=O)c(=O)[nH]c2cc1S(=O)(=O)Nc1cccc(C(F)(F)F)c1
Compound,16,17,18,19,20
HCMV NEC inh,-7,x,x,-10,x
GIV Gai3 FP,103,105,105,x,101
Sa growth inh,105,111,53,96,82
Sa growth inh second temp,87,92,21,89,80

21: CC1=NN(c2cccc(C(=O)O)c2)C(=O)/C1=C\c1ccc(-c2cc([N+](=O)[O-])ccc2O)o1
22: CCc1ccc(NS(=O)(=O)c2ccc3nc(-c4ccccc4)[nH]c3c2)cc1
23: CCC1CCCCN1S(=O)(=O)c1ccc(NC(=O)c2ccncc2)cc1 (stereo not given)
24: CC1CN(C(=O)Cc2ccc(Cl)cc2)CC(C)O1 (stereo not given)
25: CN1c2ccccc2C(=O)/C(=C\Nc2ncccn2)S1(=O)=O
Compound,21,22,23,24,25
HCMV NEC inh,-37,x,-30,-14,-32
GIV Gai3 FP,104,109,96,x,102
Sa growth inh,x,88,99,95,92
Sa growth inh second temp,x,84,93,90,85

Three compounds already listed, ordered by the number in Sa growth inh second temp, largest number first:
entry	mol	GIV Gai3 FP	Sa growth inh second temp
15	O=C(CNCc1ccc2c(c1)OCO2)NCc1ccc2c(c1)OCO2	112	96
2	CCCCn1c(=O)n(C)c(=O)c2cc3c(nc21)-c1cc(F)ccc1OC3O (stereo not given)	x	94
4	CSc1sc(C#N)c2c1S(=O)(=O)N(C)c1ccccc1-2	105	91

Next records follow:
26: Cc1ccc(CNC(=O)CCCn2nc(C)c3c(C)n(-c4ccccc4)nc3c2=O)cc1
27: CCCCCCn1c(=O)c2c(ncn2CC(O)CO)n(C)c1=O (stereo not given)
28: CCOc1ccc(-c2noc(CCC(=O)O)n2)cc1
29: CC(C)(C)C(=O)COC(=O)c1cc(-c2ccco2)nc2ccccc12
30: O=C(CCC1CCCC1)N1CCCN(c2ccc(=O)n(-c3ccccc3)n2)CC1
Compound,26,27,28,29,30
HCMV NEC inh,x,-28,6,-39,-41
GIV Gai3 FP,105,102,98,x,99
Sa growth inh,121,x,95,91,x
Sa growth inh second temp,84,x,100,80,x

31: C=CCN1C(=O)/C(=C2\SC(N)=NC2=O)c2ccccc21
32: CCCCc1nc(Cl)c(CO)n1Cc1ccc(-c2ccccc2-c2nn[nH]n2)cc1
33: NC(=S)N/N=C1\CCCC\C1=C/c1ccco1
34: O=C(COc1nccc2ccccc12)N1CCCc2ccccc21
35: CCOC(=O)C1CCCN(CCCc2ccccc2)C1 (stereo not given)
Compound,31,32,33,34,35
HCMV NEC inh,-2,-26&-26,-40,0,8
GIV Gai3 FP,109,x,107,x,105
Sa growth inh,142,97,117,115,94
Sa growth inh second temp,94,94,80,82,88

36: Cc1cccc2c(-c3ccccc3)cc(=O)[nH]c12
37: Clc1ccccc1-c1nnc(CNC2CC2)o1
38: CC1=CC(c2ccccc2)=Nc2ccc(C)cc2N1
39: O=C(NC1CCCc2ccccc21)c1cccs1 (stereo not given)
40: COc1cc(/C=N/Nc2nc(C)cc(=O)[nH]2)ccc1O
Compound,36,37,38,39,40
HCMV NEC inh,-1,-24,5,-5,-37
GIV Gai3 FP,x,x,115,x,x
Sa growth inh,108,100,108,127,91
Sa growth inh second temp,99,84,91,103,75

Reformatted with values under each structure: part of the list above.
Sequence of screens – HCMV NEC inh, GIV Gai3 FP, Sa growth inh, Sa growth inh second temp
36) Cc1cccc2c(-c3ccccc3)cc(=O)[nH]c12
    -1, x, 108, 99
38) CC1=CC(c2ccccc2)=Nc2ccc(C)cc2N1
    5, 115, 108, 91

(continued)
41: CCN(CC)c1ccc(NC(=O)Cn2c(C)cc(C)c(S(=O)(=O)c3ccc(Cl)cc3)c2=O)c(C)c1
42: Cc1ccc(C)c(Cn2c3ccccc3c3cnn(CC(=O)NC(C)c4ccccc4)c(=O)c32)c1 (stereo not given)
43: Cc1cccc(N2CCN(S(=O)(=O)c3ccc4c(c3)CC(C)N4C(=O)C3CC3)CC2)c1C (stereo not given)
44: O=C(O)c1ccccc1Nc1ccccn1
45: Cc1c(C(=O)Nc2ccc(F)c(Cl)c2)oc2ccc(S(=O)(=O)N(C)C3CCCCC3)cc12
Compound,41,42,43,44,45
HCMV NEC inh,2,4,-13,-76,x
GIV Gai3 FP,104,106,106,108,103
Sa growth inh,x,104,x,106,126
Sa growth inh second temp,x,97,x,95,95

46: COc1ccc2c(c1)C(=O)N(Cc1ccccc1)C(=O)C2
47: Cc1cnc(C(=O)O)c[n+]1[O-]
48: Cc1cc(NCc2cccnc2)no1
49: O=C(CSc1nc2ccccc2c(=O)n1-c1ccccc1)NCCc1ccccc1
50: c1ccc(-c2nc(-c3ccn[nH]3)cs2)cc1
Compound,46,47,48,49,50
HCMV NEC inh,-3,-8&5,-38,7,-61
GIV Gai3 FP,x,105,101,x,111
Sa growth inh,96,92,97,94,80
Sa growth inh second temp,90,84,83,104,81

51: COc1ccccc1C(=O)Nc1ccc(-c2nc3cc(C)cc(C)c3o2)cc1
52: O=S(=O)(c1ccccc1)c1nc(-c2ccccc2)oc1NCc1ccc2c(c1)OCO2
53: CN(Cc1ccco1)S(=O)(=O)c1ccc2[nH]cc(C(=O)O)c(=O)c2c1
54: O=C(N/N=C1/C(=O)c2cccc3cccc1c23)c1ccncc1
55: O=C(c1cccc(Cl)c1)N(Cc1ccco1)Cc1ccccc1Cl
Compound,51,52,53,54,55
HCMV NEC inh,11,-1,3,-68,2
GIV Gai3 FP,102,104,97,x,101
Sa growth inh,108,x,107,76,90
Sa growth inh second temp,104,x,93,82,44

56: O=S(=O)(Cc1ccc(Cl)cc1)N1CCCC1
57: Cc1cc(Br)cc2c1N(Cc1ccccc1OC(C)C)C(=O)C2=O
58: COc1ccccc1C1CCN(C(=O)c2cccnc2Sc2ccc(C)cc2)CC1
59: O=C(Oc1ccc(Oc2ncc(Cl)cc2Cl)cc1)c1ccco1
60: CCC1CN(C(=O)N2CCC(C(=O)NCc3cccc(OC)c3OC)CC2)c2cc(C)ccc2O1 (stereo not given)
Compound,56,57,58,59,60
HCMV NEC inh,-1,-4,-6,-3,1
GIV Gai3 FP,108,108,111,103,102
Sa growth inh,114,91,107,114,115
Sa growth inh second temp,102,58,96,89,89

61: CCCN(C(=O)[C@H]1[C@@H]2C[C@@H]3[C@H]1C(=O)O[C@@H]3C2)c1ccccc1OCC
62: CCOc1ccc(NC(=O)N(CCC(C)C)C(C)c2cccs2)cc1 (stereo not given)
63: COc1ccc(C(CC(=O)Nc2ccc3c(c2)OCO3)N2Cc3ccccc3C2=O)cc1 (stereo not given)
64: CN(CC(=O)Nc1cccc(F)c1)CC(=O)N1CCN(C(=O)c2ccco2)CC1
65: Cc1ccccc1CS(=O)(=O)Cc1ccc(C(=O)NCc2ccc(F)cc2)o1
Compound,61,62,63,64,65
HCMV NEC inh,x,x,-36,-13,x
GIV Gai3 FP,101,107,105,x,96
Sa growth inh,95,99,103,88,107
Sa growth inh second temp,85,80,83,94,83

66: COC(=O)c1cnn2c(C(F)(F)F)cc(C(F)(F)F)nc12
67: Cc1ccccc1NC(=O)C1CCN(S(=O)(=O)c2cccc3nonc23)CC1
68: Cc1cccc(-n2c3nc(=O)[nH]c(=O)c-3cc3ccc(Cl)cc32)c1C
69: Cc1oc2cc3oc(=O)c(CC(=O)N4CCCCC4)c(C)c3cc2c1C
70: O=C(Nc1ccc2oc(-c3cncc(Br)c3)nc2c1)c1ccc2c(c1)OCO2
Compound,66,67,68,69,70
HCMV NEC inh,-6,-28,-125,-30,-25
GIV Gai3 FP,102,108,106,104,100
Sa growth inh,85,95,91,99,x
Sa growth inh second temp,71,94,95,91,x

71: CC(=O)Nc1ccc(Cl)cn1
72: COC(=O)c1sccc1N/C=C(\C#N)S(C)(=O)=O
73: CCOC(=O)c1c(C)oc2nc(C)nc(N3CCc4ccccc43)c12
74: COc1ccc(/C=C2\C(=O)NC(=O)N(C)C2=O)cc1
75: CCCC(=O)C1=C(c2cccc(OC)c2)N(C(=O)CCC)n2c(C)nnc2S1
Compound,71,72,73,74,75
HCMV NEC inh,6,-5,1,9,x
GIV Gai3 FP,105,106,107,98,101
Sa growth inh,66,103,92,119,138
Sa growth inh second temp,99,86,106,100,88

76: O=C(Nc1ccc(-c2noc(C3CCC3)n2)cc1)N1CCN(Cc2ccc3c(c2)OCO3)CC1
77: Cc1cc(NC(=O)c2ccc3nc(N4CCOCC4)sc3c2)ccc1Br
78: CCSc1nn(CC(=O)Nc2c(C)cc(C)cc2C)c(N)c1S(=O)(=O)c1ccc(C)cc1
79: C=CCN(CC=C)C(=S)Nc1ccc(S(N)(=O)=O)cc1
80: C/C(=C/C(=O)C(F)(F)F)N1CCC(C(N)=O)CC1
Compound,76,77,78,79,80
HCMV NEC inh,7,x,-26,-17,-21
GIV Gai3 FP,100,101,96,105,x
Sa growth inh,x,80,x,107,92
Sa growth inh second temp,x,83,x,86,84

81: COc1ccccc1Nc1cc(N2CCCCCC2)c2nonc2c1[N+](=O)[O-]
82: COC(=O)c1ccccc1NC(=O)CSc1nnc(-c2cc3cccc(OC)c3o2)n1C
83: CCOC(=O)Cc1csc(SCC(=O)NC)n1
84: O=C(Nc1ccc(Cl)cc1)c1cc(-c2cccs2)on1
85: CCN(CC)C(=O)C1CCN(C(=O)c2cnn(-c3ccccc3)c2-n2cccc2)CC1
Compound,81,82,83,84,85
HCMV NEC inh,0,8,-31,1,-10
GIV Gai3 FP,115,106,x,100,104
Sa growth inh,x,105,87,95,102
Sa growth inh second temp,x,102,89,82,81

86: Cc1cc(Nc2cccc(C(F)(F)F)c2)nc2ccc(NC(=O)c3ccc(Br)o3)cc12
87: CCc1ccc(NC(=O)CSc2nc3ccccc3c(=O)n2CCCC(=O)N2CCCC2)cc1
88: CCOC(=O)c1ccc(NC(=O)CSC2=NC(=O)C(CC)C(=O)N2)cc1 (stereo not given)
89: COc1cccc(CNC(=O)CCn2ccc3cc(S(=O)(=O)N4CCCC4)ccc32)c1
Compound,86,87,88,89
HCMV NEC inh,-29,x,x,x
GIV Gai3 FP,106,94,102,102
Sa growth inh,93,92,111,99
Sa growth inh second temp,73,91,84,85

Bioassay records deposited in PubChem by ICCB-Longwood Screening Facility, Harvard Medical School.
